Bioassay records from PubChem BioAssay.
RecA intein inh: blocks M. tuberculosis RecA intein splicing. AID 2221. inhibition, %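 (about 9 µM by stock and volumes)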. cell-free RecA intein splicing, fluorescence. 290,000 tested, 0.75% active. P9WHJ3; in the data active = inhibition above about 30%; inconclusive = no clear call, values can overlap the other calls;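 also: 0% = vehicle wells and 100% = reference inhibitor control wells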
Target sequence (P9WHJ3 whole entry, looked up): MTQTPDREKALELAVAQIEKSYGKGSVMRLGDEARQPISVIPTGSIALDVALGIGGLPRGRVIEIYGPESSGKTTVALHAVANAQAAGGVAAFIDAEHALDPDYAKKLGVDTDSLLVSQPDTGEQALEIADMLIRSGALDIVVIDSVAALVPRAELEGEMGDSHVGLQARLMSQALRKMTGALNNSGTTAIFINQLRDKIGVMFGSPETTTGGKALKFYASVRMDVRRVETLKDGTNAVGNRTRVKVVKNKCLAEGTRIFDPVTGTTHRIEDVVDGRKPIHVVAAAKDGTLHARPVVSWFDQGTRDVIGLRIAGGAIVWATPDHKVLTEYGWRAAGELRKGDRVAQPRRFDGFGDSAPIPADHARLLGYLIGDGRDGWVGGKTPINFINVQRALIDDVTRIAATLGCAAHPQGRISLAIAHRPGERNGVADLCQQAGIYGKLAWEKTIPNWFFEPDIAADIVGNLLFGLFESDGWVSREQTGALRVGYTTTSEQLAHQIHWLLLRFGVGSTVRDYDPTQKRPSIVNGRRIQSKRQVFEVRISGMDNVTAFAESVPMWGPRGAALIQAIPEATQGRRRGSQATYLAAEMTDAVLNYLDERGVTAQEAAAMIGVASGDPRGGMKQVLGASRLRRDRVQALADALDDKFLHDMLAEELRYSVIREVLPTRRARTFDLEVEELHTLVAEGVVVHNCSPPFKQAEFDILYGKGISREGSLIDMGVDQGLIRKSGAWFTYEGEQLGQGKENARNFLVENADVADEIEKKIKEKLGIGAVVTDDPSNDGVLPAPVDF
Arbovirus anti: antivirals against arbovirus infection. arbovirus infection cell-based antiviral screen. inhibition, % at 10 µM. 200,000 tested, 0.37% active;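 active = inhibition from about 30%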;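 also: bluetongue infection of BSR cells; cell survival read as ATP light after 72 h; 0% = infected wells without compound and 100% = uninfected wells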
YopH PTP inh: inhibitors of Yersinia enterocolitica YopH tyrosine phosphatase. 140,000 tested, 0.16% active. fluorescence Ex485/Em525. AID 898. inhibition, %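 (about 10 µM by stock and volumes)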;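 active = inhibition of 50% or more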;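 also: controls were vehicle for no effect and minimum signal wells for full effect; inactives centre near -20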
Mtb bLac sens: beta-lactam sensitization of Mtb H37Rv | M. tuberculosis H37Rv growth with meropenem, percent inhibition; hits of this screen are not shown here | inhibition, % at 25 µM | 330,000 tested, 0.27% active;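 active = about 74% or more and at least 40 points above the plate without the antibiotic, then above 30% in a dose series; inconclusive = first-round hits that could not be retested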;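 also: growth measured after seven days incubation then overnight dye step; 0% = bacteria only wells and 100% = bacteria with antibiotic; twin plates without the antibiotic show which effects depend on it; some results filed as inactive read as strong as hits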
Mtb growth: M. tuberculosis H37Rv growth inhibitors, H37Rv strain (AID 1626) | M. tuberculosis H37Rv growth inhibition; higher % means a stronger effect | inhibition, % at 10 µM; hits with a dose series show IC50 in µM | 220,000 tested, 0.95% active;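 active = confirmed in a dose series; inconclusive = inhibition above 80% but not taken into the dose series; inactive = below 80% or under 30% at every dose of the series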;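 also: bacteria incubated seven days before Alamar blue readout; 0% = bacteria only wells and 100% = bacteria with antibiotic wells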
Arbovirus anti repeat: further read-out of Arbovirus anti, marked with its call; inhibition, %; measured here: 10K subset replicate screen; many hits read low in the repeat;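 first of two repeat runs on a subset; 0% = infected and 100% = uninfected wells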
* hit, by the source's call; ? = inconclusive; / = not tested or not shown. Not all compounds are listed; rates above refer to the full screens.

SMILES	RecA intein inh	Arbovirus anti	YopH PTP inh	Mtb bLac sens	Mtb growth	others
Cn1c(N)c(C(=O)COC(=O)C2=COCCO2)c(=O)n(C)c1=O	1.0	6	-33	-15	-21%
COC(=O)c1nnn(-c2nonc2N)c1-c1cccs1	-0.5	6	-16	2	1%
O=C(OCc1cccc([N+](=O)[O-])c1)c1cc2ccccc2oc1=O	-1.2	/	/	90	/
CC(=O)Oc1cc(C(C)C)c(OCCN(C)C)cc1C	-2.7	8	-37	-5	-8%
Nc1cc(=O)[nH]c(SCC(=O)N2CCN(S(=O)(=O)c3ccc4ccccc4c3)CC2)n1	-2.6	-5	/	-4	0%
COc1ccc(N(C)C(=O)Cc2c(C(=O)O)n(C)c3ccccc23)c(OC)c1	-2.5	/	/	2	/
COc1ccc(C)cc1NC(=O)c1cnc2n(c1=O)CCS2	-0.9	4	-13	33	3%
Cc1cc(-c2n[nH]c(=S)n2/N=C/c2sccc2C)n[nH]1	-0.7	-2	-27	-3	-4%
CCN(CC)C(=O)C12C(=O)Oc3ccccc3C1C2(C)C(=O)c1ccc(F)cc1 (centres undefined)	-0.2	/	/	1	-5%
CCn1cc(C(=O)NCC(=O)NC(C)(C)CO)c(=O)c2cc3c(cc21)OCO3	-0.5	/	/	3	/
COc1ccc(C(=O)C23CC4CC(C2)CC(C(=O)c2ccc(OC)cc2)(C4)C3)cc1	5.3	7	/	-12	1%
Cc1ccc2cc3cc(C(=O)NCCCN4CC(C)CC(C)C4)oc3nc2c1 (centres undefined)	-7.2	/	/	4	/
CC(NC(=O)C12CC3CC(CC(C3)C1)C2)C(=O)N/N=C/C1=C(N2CCOCC2)C(=C\c2ccccc2)/CC1 (centres undefined)	-16	-23	4	55	18%
S=P(Nn1cnnc1)(c1ccc(Br)cc1)c1ccc(Br)cc1	/	-14	/	70	5%
C=CCSc1nc2ccccc2[nH]1	-0.1	4	-4	-2	0%
Oc1ccccc1C1NCc2ccccc2-n2cccc21 (centres undefined)	0.1	/	/	10	/
Cn1cc(CNCCCn2ncc3ccccc32)c(-c2ccccc2F)n1	2.1	-1	/	4	6%
CC(C)(C)NC(=O)CC1C(=O)NCCN1Cc1c(F)cccc1Cl (centres undefined)	-0.4	6	/	5	-1%
COc1ccc(NC2CCCCC2NS(=O)(=O)c2ccc(C)cc2)cc1 (centres undefined)	-1.1	/	/	2	/
CCOC(=O)C(Cc1ccc(OC)c([N+](=O)[O-])c1)NC(=O)CCC(=O)Nc1ccc(C)cc1 (centres undefined)	-0.6	8	/	4	-3%
CC(Oc1cccc(Cl)c1)C(=O)Nc1ccccc1C(=O)N1CCCCC1 (centres undefined)	1.0	/	/	5	/
CCOC(=O)c1ccc(NC(=O)CNC(=O)C2CCCCC2)cc1	-1.1	-3	-38	-2	-1%
Cc1c(CCC(=O)N[C@@H](C)C(=O)O)c(=O)oc2cc3occ(-c4ccccc4)c3cc12	-3.4	/	/	-1	/
c1ccc(-c2ccc(-c3cnc4n3CCCCC4)cc2)cc1	8.9	-24	-7	99	73%
CCn1c(=O)c2cc(S(=O)(=O)NCCOc3ccccc3)ccc2n(CC)c1=O	0.8	-10	11	-4	-4%

Random excerpt: two compounds from above
SMILES	RecA intein inh	Arbovirus anti	YopH PTP inh	Mtb bLac sens	Mtb growth	others
CCn1c(=O)c2cc(S(=O)(=O)NCCOc3ccccc3)ccc2n(CC)c1=O	0.8	-10	11	-4	-4%
COc1ccc(N(C)C(=O)Cc2c(C(=O)O)n(C)c3ccccc23)c(OC)c1	-2.5	/	/	2	/

More structures:
SMILES	RecA intein inh	Arbovirus anti	YopH PTP inh	Mtb bLac sens	Mtb growth	others
Nn1cc(-c2ccccc2)nc1SCC(=O)Nc1ccc(S(N)(=O)=O)cc1	0.7	/	/	-5	-1%
Cc1cc(NC(=O)c2sc(Nc3cccc(C(F)(F)F)c3)nc2N)no1	0.0	-24	-19	38	6%
Fc1ccc(NC(=S)Nc2ccccc2N2CCOCC2)cc1Cl	4.2	-17	/	53	73%
CCOC(=O)c1sc2ncn(C(CC)C(=O)OCC)c(=O)c2c1C (centres undefined)	-1.4	1	-18	-18	1%
CCCCNC(=S)N/N=C/c1ccc(C)s1	0.5	2	-11	98	/
COc1ccccc1-c1nc(SCC(=O)N(C)c2ccccc2)c2c(=O)n(C)c(=O)n(C)c2n1	2.5	-11	/	-6	12%
CCOc1nc(C)ccc1-c1noc(-c2ccccn2)n1	-0.4	1	-30	-1	9%
COCCCn1c(SCC(=O)NCc2ccco2)nc2sc3c(c2c1=O)CCC3	2.5	9	-44	-18	6%
O=c1c2ccccc2nc(SCc2nc(-c3ccccc3)no2)n1-c1ccc(F)cc1	/	9	-29	-2	15%	Arbovirus anti repeat=11
CCn1cc(C2Nc3ccccc3C(=O)N2O)c(C)n1 (centres undefined)	-3.4	-11	-19	-1	-7%
O=C(C1CCN(S(=O)(=O)N2CCC3(CC2)OCCO3)CC1)N1CCCCC1	2.7	5	11	0	-5%
COc1cccc(/C=C2\SC(=S)N(CC3CCCO3)C2=O)c1 (centres undefined)	8.2	11	-25	-1	1%
O=C(NCc1nnc(SCC(=O)N2CCN(c3ccccc3)CC2)o1)c1ccc(F)cc1	-2.0	/	/	3	/
CC1=NN(c2ccc(Cl)c(C(=O)O)c2)C(=O)/C1=C/c1ccc(-c2ccccc2[N+](=O)[O-])o1	7.5	/	/	-2	/
O=C(Cn1nc(C(F)(F)F)c2c1CCC2)NCc1ccc(F)cc1	0.7	0	5	12	-9%
Cc1ccc(Nc2nc(N)nc(CN3CCC(C)CC3)n2)c(C)c1	2.6	-2	-2	5	-9%
CCc1ccc(S(=O)(=O)NCCc2cn3ccsc3n2)s1	0.3	2	-25	-1	14%
COc1ccc(S(=O)(=O)Nc2ccccc2C(=O)N2CCCC2)cc1OC	0.5	/	/	-1	5%
COc1cc(C2NC(=S)NC3=C2C(=O)CCC3)ccc1O (centres undefined)	-3.7	/	/	2	/
CCOC(=O)c1ccc2c(c1)n(CC)c(C)[n+]2CC	1.0	2	/	-8	0%
O=C(CCc1ccccc1)NCCS(=O)(=O)N1CCN(c2ccccc2)CC1	0.2	/	/	2	/
Cc1ccc(C(=O)N2N=C(c3ccccc3)CC2(O)C(F)(F)F)o1 (centres undefined)	4.6	14	/	6	-3%
CSC(=CC(=O)c1ccc(F)cc1)SC	2.2	/	/	-1	-7%
CC1=NN(c2nc3ccccc3[nH]2)C(=O)C1Cc1ccccc1 (centres undefined)	-5.5	/	/	-2	0%
CC(=O)Nc1nc(-c2ccccc2)c(-c2ccccc2)o1	-2.3	-18	2	71	56%

The list goes on; it opens with the six that closed the last part.
SMILES	RecA intein inh	Arbovirus anti	YopH PTP inh	Mtb bLac sens	Mtb growth	others
CCOC(=O)c1ccc2c(c1)n(CC)c(C)[n+]2CC	1.0	2	/	-8	0%
O=C(CCc1ccccc1)NCCS(=O)(=O)N1CCN(c2ccccc2)CC1	0.2	/	/	2	/
Cc1ccc(C(=O)N2N=C(c3ccccc3)CC2(O)C(F)(F)F)o1 (centres undefined)	4.6	14	/	6	-3%
CSC(=CC(=O)c1ccc(F)cc1)SC	2.2	/	/	-1	-7%
CC1=NN(c2nc3ccccc3[nH]2)C(=O)C1Cc1ccccc1 (centres undefined)	-5.5	/	/	-2	0%
CC(=O)Nc1nc(-c2ccccc2)c(-c2ccccc2)o1	-2.3	-18	2	71	56%
COc1cccc(N2CCN(CC(=O)Nc3nc4c(s3)CC(C)CC4)CC2)c1 (centres undefined)	4.0	-1	-54	100	?
CC(=O)c1ccc(NC(=O)CCCN2C(=O)COc3ccc(C)cc32)cc1	2.5	/	/	1	/
Cc1ccnc(SCc2cc(=O)c(OC(=O)c3ccc(Br)o3)co2)n1	1.7	-7	-16	7	-2%
COc1ccc(NC2=C3CCCC=C3N(c3ccc(OC)cc3)C2=O)cc1	2.6	-13	/	15	63%
COC(=O)CN(c1ccccc1)S(=O)(=O)c1cc(Br)ccc1OC	1.0	2	/	6	5%
CN(C)CCNC(=O)COc1ccc(Cl)cc1Cl	-2.1	5	-28	-3	-4%
C/C(=N\Nc1ccc(C(=O)c2c(C)cc3ccccn23)cc1[N+](=O)[O-])c1ccc(O)cc1	2.4	/	/	4	14%
Cc1nc2cc(C(=O)N3CCN(C)CC3)ccc2n1C	1.1	/	/	-4	/
O=C(COC(=O)c1cccc(Br)c1)NCCNC(=O)COC(=O)c1cccc(Br)c1	-0.3	/	/	1	/
COc1ccc(NC(=O)Cn2c(=O)n(-c3ccccc3)c(=O)c3oc4ccccc4c32)c(OC)c1	-0.4	-9	18	9	8%
CCOC(=O)Cc1csc(NS(=O)(=O)c2ccc(NC(C)=O)cc2)n1	-1.5	/	/	-8	/
O=C(NCCCN1CCCC1=O)Nc1ccccc1Cl	-0.5	/	/	-6	/
COc1cc(-c2noc(C)c2C#Cc2ccsc2)cc(OC)c1OC	2.6	/	/	91	/
COc1ccc(CNC(=O)CCC(=O)Nc2nnc(C(F)(F)F)s2)cc1	-2.0	/	/	-6	/
Cc1nc([N+](=O)[O-])cn1-c1nc2ccccn2c1[N+](=O)[O-]	1.0	/	/	-8	-2%
CCN(CC)CCN(Cc1cc2ccc(C)c(C)c2[nH]c1=O)C(=S)NCc1ccco1	1.1	-18	/	-3	-6%
N#Cc1ccsc1NC(=O)CN1CCCCC1	/	8	-2	-11	2%
CCN1C(=O)c2cccc3c(S(=O)(=O)Nc4ccc(OC)cc4OC)ccc1c23	0.9	-6	-26	-3	/
Cc1cc(NC(=O)CSc2nc3ccsc3c(=O)n2Cc2ccccn2)n[nH]1	0.8	4	8	-11	-10%
COc1ccc(CNC(=O)C(=O)NCC2OCCCN2S(=O)(=O)c2cccs2)cc1 (centres undefined)	-2.0	/	/	-1	/
N[C@@H](Cc1cc(I)c(Oc2cc(I)c(O)c(I)c2)c(I)c1)C(=O)O	0.2	/	/	2	-9%
COc1ccc(CCNCC(=O)Nc2ccc(C)c(S(=O)(=O)N(C)C)c2)cc1	4.1	9	/	-5	4%
CC(=O)Oc1cccc(N2C(=O)c3ccc(C(=O)O)cc3C2=O)c1	-1.2	6	-32	-17	-3%
Cc1ccc(C)c(SCC(=O)c2ccc[nH]2)c1	/	-5	/	4	-6%
Cc1cc(C)cc(Oc2ccc(N)cc2)c1	2.2	-6	11	9	-5%

Further structures.
SMILES	RecA intein inh	Arbovirus anti	YopH PTP inh	Mtb bLac sens	Mtb growth	others
O=C(Nc1nccs1)C1CC(=O)N(CCc2ccc(F)cc2)C1 (centres undefined)	0.6	/	/	-2	/
COc1ccccc1C(=O)NC1CC(C)(C)NC(C)(C)C1	-2.8	/	/	-1	/
O=[N+]([O-])c1cccc(CN2CCN(c3cccc4[nH]ccc34)CC2)c1	-3.5	/	/	3	/
CCOC(=O)C1CCN(S(=O)(=O)c2cc(Cl)c(C)cc2OC)CC1	-0.4	-6	-37	49	-7%
CC1Sc2ccc(S(=O)(=O)CCC(=O)Nc3ccccn3)cc2NC1=O (centres undefined)	-2.5	/	/	-5	/
Cc1ccc(-n2c3nc(=O)n(C)c(=O)c-3cc3ccccc32)cc1	-93	/	/	-10	-4%
CCOC(=O)N1CCN(C(=O)CNC(=O)c2nn(-c3ccc(OC)cc3)c(=O)c3ccccc23)CC1	/	-7	0	?	-7%
Cc1ccc2c(c1)C(c1ccc(F)cc1)N(C(=O)c1ccccc1Br)CC(=O)N2 (centres undefined)	6.4	/	/	3	/
CCCOc1ccc(C(C)=O)cc1CC(C(=O)OCC)C(=O)OCC	3.5	4	-11	97	-3%
O=C(COC(=O)/C=C/c1ccc(S(=O)(=O)N2CCOCC2)cc1)NCc1ccc2c(c1)OCO2	0.8	-3	/	-4	-1%
COC(=O)CNC(=O)C1(C)C=CCN1C(=O)c1ccccc1 (centres undefined)	1.1	0	-24	-2	-13%
Cn1c(=O)c2cc(S(=O)(=O)Nc3cc(C(=O)O)cc(C(=O)O)c3)ccc2n(C)c1=O	-1.6	0	/	-4	-5%
O=C(COC(=O)c1cc(=O)[nH]c2ccccc12)Nc1nc(-c2ccccc2)cs1	4.6	-6	/	-5	4%
CCN1CCN(Cc2ccc(NC(=O)c3cc(NC(=O)c4cc(C)on4)cc(OC)c3)cc2C(F)(F)F)CC1	2.2	/	/	98	/
CCCOC(=O)c1[nH]c2c(c1C)C(=O)CC(c1ccc(OC)c(OC)c1)C2 (centres undefined)	-1.6	-3	-38	4	5%
CSc1ccccc1NC(=S)N/N=C/c1cccn1Cc1ccc(F)cc1	-1.2	5	/	-4	-2%
CC(Sc1ncn[nH]1)C(=O)Nc1ccc(Cl)cn1 (centres undefined)	1.1	/	/	-2	/
COc1ccc(C(=O)O/N=C(\N)c2ccc(OC)c(OC)c2)c(OC)c1	-0.8	/	/	22	/
COc1ccc(NC(=O)c2cccs2)cc1NC(=O)c1ccco1	1.1	-3	-6	-14	13%
